# Source: PubChem
# ClpP mod: qHTS Assay for Activators of ClpP; Potency, µM (highest dose often 57.5 µM), for the others: top-dose activity change, negative = active; purified B. subtilis ClpP, FRET peptide cleavage, 20 min; ATP-dependent Clp protease proteolytic subunit (Bacillus subtilis (strain 168)), P80244; actives 1.9% (n = 340,000); active = well fitted falling curve with a large enough effect; inconclusive = small, poorly fitted or top-dose-only effect; inactive = no such curve, though single readings can be large or run the other way; further: the source files actives as falling curves though it sought activators and does not explain the sign; nearly all actives have a fitted effect of over 65% in size; many hits overshoot -100%
# Target sequence (P80244 whole entry, looked up): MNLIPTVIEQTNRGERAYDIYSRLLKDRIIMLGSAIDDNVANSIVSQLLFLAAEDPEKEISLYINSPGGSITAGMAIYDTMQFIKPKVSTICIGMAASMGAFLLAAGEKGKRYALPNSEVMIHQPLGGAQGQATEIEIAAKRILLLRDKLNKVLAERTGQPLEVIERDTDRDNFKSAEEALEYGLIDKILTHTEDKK
#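 ClpP 10 microg/mL final, pH 8 Tris/KCl buffer with BSA, glycerol, Tween-20; compound pinned in; FRET-FV substrate; RT 20 min; Ex320/Em430; ΔFRET vs ADEP 5.8 microM, DMSO, no enzyme.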
# * = called active by the depositor; u = inconclusive. Potency means the concentration at half of the fitted maximal effect.
SMILES,ClpP mod
CCC(=O)N1CCc2cc(Br)cc(S(=O)(=O)CCC(=O)NCc3cccc(OC)c3)c21,-1.6%
Cc1ccc(-c2nnc(Nc3cccc(C(F)(F)F)c3)c3ccccc23)cc1S(=O)(=O)N1CCOCC1,u
CCn1c(=O)cc(SCC(=O)Nc2ccc(C)c(F)c2)c2ccccc21,-10%
CCOc1ccc(-c2cccc(NS(=O)(=O)c3ccc(Cl)s3)c2)nn1,1.5%
COc1cc([N+](=O)[O-])ccc1NC(=O)c1nc2ccccc2n(C)c1=O,-1.9%
Cc1ccc(NC(=O)CSc2nnc(-c3ccc([N+](=O)[O-])cc3)o2)c(C)c1,-1.5%
Cc1ccccc1CN1CCCN(CC(=O)Nc2ccc3c(c2)OCCO3)S1(=O)=O,0.6%
COc1ccccc1Nc1sc(C(=O)c2ccc3c(c2)OCO3)c(N)c1S(=O)(=O)c1ccccc1,-26%
COC(=O)Cc1c(C)c2ccc3c(c2oc1=O)CN(Cc1ccc(Cl)cc1)CO3,u
CCN(CC)C(=O)Cn1cc(SCC(=O)Nc2cc(OC)ccc2OC)c2ccccc21,-0.4%
CCOC(=O)[C@]12CCC=C1N(Cc1ccco1)C(=O)[C@H](CC(=O)NCCc1ccccc1OC)C2,0.6%
O=C(CN1C(=O)C2(SCC(=O)N2c2ccc(Cl)cc2)c2ccccc21)NCCc1ccccc1 (centres undefined),0.6%
CCOC(=O)[C@]12CCCC=C1N(Cc1cccc3ccccc13)C(=O)[C@H](CC(=O)NCc1ccccc1)C2,-0.2%
COc1ccc(CNC(=O)C(=O)NCC(c2cccs2)S(=O)(=O)c2ccc(C)cc2)cc1 (centres undefined),-0.1%
CC(C)C[C@@H]1COc2cccc(N(C)CCO)c2S(=O)(=O)N1,0.7%
O=C(NCc1ccccc1)C1CCC(CNS(=O)(=O)c2ccc(Br)s2)CC1 (centres undefined),4.3%
COc1cc(NC(=O)c2ccc(-c3nc(COc4ccccc4)c(C)o3)cc2)cc(OC)c1,u
O=C(Cn1c(-c2cccs2)cc2ccccc21)NCCCN1CCN(c2ccccc2F)CC1,u
O=S(=O)(c1ccc2nc(NCc3ccccc3Cl)ccc2c1)N1CCCCC1,4.3%
CCOc1ccc(C(=O)Nc2ccc(C(=O)OCc3cc(=O)n4nc(CC)sc4n3)cc2)cc1,-15%
O=C(Cc1ccccc1)N(Cc1cccnc1)c1nc2c(F)cc(F)cc2s1,-4.5%
O=C1c2ccccc2NC(c2ccc(OCc3ccccc3)c(OCc3ccccc3)c2)N1Cc1ccco1 (centres undefined),4.3%
CC1(C(=O)NCc2ccccc2)CN(S(C)(=O)=O)CC(=O)N1CCc1ccccc1 (centres undefined),1.6%
Cc1nn(-c2ccccc2)c2sc(C(=O)Nc3ccc(Br)cc3)cc12,-3.6%
CCc1ccc(OCC(=O)Nc2ccc(Cl)c(-c3nc4ncccc4o3)c2)cc1,u
CCCC(=O)Nc1ccc2nc(SCC(=O)N3CCOCC3)sc2c1,-1.3%
CCN1CCN(C(c2ccc(F)cc2)c2sc3nc(-c4ccco4)nn3c2O)CC1 (centres undefined),0.7%
Cc1ccc(Cl)cc1N1CCN(C(=O)c2cc3c(=O)n(C)c4ccccc4c3s2)CC1,-2.4%
CCc1ccc(NC(=O)C2CCN(c3ccc(Sc4ccc(C)cc4)nn3)CC2)cc1,-11%
O=C(NCCCc1ccccc1)c1nn(-c2ccccc2F)nc1CO,-5.2%

# Quoted at random: 5 entries already listed, in no set order.
SMILES,ClpP mod
CCOc1ccc(-c2cccc(NS(=O)(=O)c3ccc(Cl)s3)c2)nn1,1.5%
O=C(Cc1ccccc1)N(Cc1cccnc1)c1nc2c(F)cc(F)cc2s1,-4.5%
CCOC(=O)[C@]12CCCC=C1N(Cc1cccc3ccccc13)C(=O)[C@H](CC(=O)NCc1ccccc1)C2,-0.2%
CCc1ccc(OCC(=O)Nc2ccc(Cl)c(-c3nc4ncccc4o3)c2)cc1,u
CCN1CCN(C(c2ccc(F)cc2)c2sc3nc(-c4ccco4)nn3c2O)CC1 (centres undefined),0.7%

# (more compounds)
SMILES,ClpP mod
COc1ccc(CNC(=O)c2c(O)nc3c(C)cccn3c2=O)cc1,u
CNc1nc(Oc2ccc(=O)[nH]n2)nc(N2CCOCC2)n1,0.5%
CCCN(CCC)CCCNC(=O)C1CCCN(S(=O)(=O)c2cccc3nsnc23)C1 (centres undefined),0.7%
O=C(Nc1c(C(=O)N2CCN(c3ccccc3F)CC2)oc2ccccc12)c1ccco1,-22%
Cc1ccc(-c2nc(NC(=O)CSc3nc(C)nc4sc5c(c34)CCCC5)ns2)cc1,-5.6%
CCCc1nn2c(C)c(-c3ccccc3)nc2s1,0.2%
C=CCC(CC=C)(CNC(=O)C(=O)Nc1ccc(Br)cc1)c1ccc(OC)c(OC)c1,-1.3%
Cc1ccc2c(c1)N(C(=O)CCC(=O)NCc1ccccc1F)CC(C)O2 (centres undefined),1.0%
Cc1ccc(N2CCN(c3nc4ccc(C)cc4n4nnnc34)CC2)c(C)c1,1.5%
CCc1cccc(C)c1NC(=O)Cn1c(=O)n(-c2cccc(C)c2)c(=O)c2c1c1cc(C)ccc1n2C,4.1%
CCOC(=O)c1cc(-c2ccc(F)cc2)n(CC(=O)NC2CCCCC2)c1C,-1.4%
Cc1ccc(C(=O)n2nc(C)c(S(=O)(=O)N3CCOCC3)c2C)cc1C,-1.0%
COc1ccc2c(c1)c1c(c(=O)n(-c3ccc(OC)c(OC)c3)c(=O)n1Cc1ccc(F)cc1)n2C,u
Cc1c(C(=O)Nc2cccc(C(F)(F)F)c2)sc2nc3n(c(=O)c12)CCC3,-0.1%
COc1cc(Cl)c(C)cc1NC(c1ccccc1)c1nnc(-c2ccccc2Cl)o1 (centres undefined),2.0%
Cc1ccc(NC(=O)c2c(C)oc3c2C2=NCCN2C=N3)cc1F,-4.5%
CCCCCC(=O)N(c1ccc(OCC)cc1)S(=O)(=O)c1ccc2c(c1)n(C)c(=O)n2C,-2.8%
CCOC(=O)[C@]12CCC=C1N(Cc1ccc3c(c1)OCO3)C(=O)[C@H](CC(=O)NCC13CC4CC(CC(C4)C1)C3)C2,-3.3%
Cc1nn(-c2ccc(N3CCCC3)nn2)c(C)c1CCC(=O)N1CCN(c2ccc(F)cc2)CC1,0.4%
O=C(CN1N=C(c2ccc(Cl)cc2)CCC1=O)NCc1ccc(F)cc1,1.4%
Cn1c(SCC(=O)N2CCCc3ccccc32)ncc(C(=O)Nc2ccc(Cl)cc2)c1=O,-11%
CCOc1ccc(NC(=O)c2oc3ccccc3c2NC(=O)Cc2cccc(C)c2)cc1,-1.0%
Cc1cc(C)c(Nc2nn3c(=O)c4cc5c(cc4nc3s2)OCO5)c(C)c1,0.2%
CCCCOc1cccc(C(=O)N(Cc2ccc(Br)o2)C2CCS(=O)(=O)C2)c1 (centres undefined),0.0%
COc1ccc(CCNC(=O)C2CCN(c3nc4ccccc4nc3C(F)(F)F)CC2)cc1OC,0.0%
CCC(Cn1nnc2ccccc2c1=O)NC(=O)Nc1cccc(C)c1C (centres undefined),-0.5%
O=C(Nc1cc(-c2nc3cc(Cl)ccc3o2)ccc1Cl)c1cc2ccccc2o1,0.5%
Cc1ccc(C)c(N2CCN(C(=O)c3cn(CC(C)C)c(=O)c4c3c3ccccc3n4C)CC2)c1,u
O=C(Cc1ccc(NC(=O)N2CCCCc3ccccc32)cc1)Nc1ccccc1Br,-11%
CCN(C(=O)CSc1nc2ccccc2c2nc(CCn3c(C)nc4ccccc43)nn12)c1cccc(C)c1,-4.7%

# Reformatted with tabs: part of the list above.
smiles	ClpP mod
Cc1ccc(NC(=O)c2c(C)oc3c2C2=NCCN2C=N3)cc1F	-4.5%
CCCCCC(=O)N(c1ccc(OCC)cc1)S(=O)(=O)c1ccc2c(c1)n(C)c(=O)n2C	-2.8%
CCOC(=O)[C@]12CCC=C1N(Cc1ccc3c(c1)OCO3)C(=O)[C@H](CC(=O)NCC13CC4CC(CC(C4)C1)C3)C2	-3.3%
Cc1nn(-c2ccc(N3CCCC3)nn2)c(C)c1CCC(=O)N1CCN(c2ccc(F)cc2)CC1	0.4%
O=C(CN1N=C(c2ccc(Cl)cc2)CCC1=O)NCc1ccc(F)cc1	1.4%
Cn1c(SCC(=O)N2CCCc3ccccc32)ncc(C(=O)Nc2ccc(Cl)cc2)c1=O	-11%

# More structures follow:
SMILES,ClpP mod
CCOc1ccc(C2N3CC4(C(C)C)CN2CC(C(C)C)(C3)C4=O)cc1OC (centres undefined),-0.5%
COc1ccc(-n2c(-c3ccccc3F)nc3c(cnn3-c3ccc(C)cc3)c2=O)cc1,25µM*
COc1ccc2oc(-c3ccc(C)c(NC(=O)c4sc5ccccc5c4Cl)c3)nc2c1,-1.8%
COc1ccc(NC(=O)c2sc3nc4c(c(-c5ccc(OC)cc5)c3c2N)C(=O)CC(C)(C)C4)cc1,0.6%
COc1ccc(OCCCCn2c(-c3ccc(Cl)cc3)nc3ccccc3c2=O)cc1,-6.0%
CCc1cccc(NC(=O)C(Cc2ccccc2)NS(=O)(=O)c2ccc3c(c2)oc(=O)n3C)c1 (centres undefined),-0.5%
COc1cccc(CNC(=O)[C@@H]2CCCN2C(=O)[C@H]2CCCCN2S(=O)(=O)c2ccc(OC)c(C)c2)c1,0.8%
CC1=C(C(=O)Nc2ccccc2)C(C(C)C)n2nc(SCc3ccccc3C)nc2N1 (centres undefined),u
O=c1cc(CN2CCN(S(=O)(=O)c3ccc(Cl)cc3)CC2)nc2sc(-c3ccccc3F)nn12,-4.2%
CC(=O)c1ccc(C2CC(OCCF)=CC(=O)O2)cc1 (centres undefined),1.7%
CCOC(=O)c1ccc(NC(=O)Nc2cccc(OCc3cc(=O)n4ccc(C)cc4n3)c2)cc1,-8.1%
COc1ccc(CNC(=O)Cn2c(=O)ccc3cc(S(=O)(=O)N4CCCC4)ccc32)cc1,-7.1%
Cc1ccc2sc(N3CCN(C(=O)CCS(=O)(=O)c4ccc(F)cc4)CC3)nc2c1C,-3.8%
CCN(CC)c1ccc(CN(C(=O)c2cc(=O)c3ccccc3o2)C2CCS(=O)(=O)C2)cc1 (centres undefined),1.6%
COC(=O)C1(C(=O)OC)C[C@H](/C=C/c2ccccc2)N(Cc2ccccc2OC)[C@@H]1c1ccc(F)cc1,0.9%
CCOC(=O)C1CCCN(c2nc3c(S(=O)(=O)c4ccc(CC)cc4)nnn3c3ccsc23)C1 (centres undefined),32µM*
O=C(CCSc1nc(-c2ccco2)cc(C(F)(F)F)n1)Nc1cccc(O)c1,-4.1%
Cc1cccc(CNC(=O)c2cnc3sc(N4CCCCC4)nn3c2=O)c1,4.2%
COc1cc(NC(=O)CN2C(=O)CCc3cc(Br)ccc32)cc(OC)c1OC,-2.6%
CCN(CC)CCCNC(=O)Cn1nc(C)n2c(cc3sccc32)c1=O,-25%
Cc1ccc(-n2ncc(C(=O)N3CCN(c4ccccn4)CC3)c2C2CCN(C(=O)OC(C)(C)C)CC2)cc1C,-1.7%
O=C(NCc1ccc(Cl)cc1)C1CCCN(C(=O)c2cnn(-c3ccc(F)cc3)c2-n2cccc2)C1 (centres undefined),0.6%
Cc1cccc(C(=O)NC(=O)Nc2ccc(-c3cc(C(F)(F)F)nn3-c3ccccc3)cc2)c1,-16%
COc1ccccc1C(=O)Nc1cccc(C(=O)OCc2cc(=O)n3c4c(sc3n2)CCCC4)c1,-9.0%
C[C@@H]1[C@H](c2ccccc2)OCCS(=O)(=O)N1Cc1ccc(F)cc1,0.4%
C=C1C=C(C)n2ncc(C(=O)Nc3ccc(F)cc3F)c2N1,-3.2%
CCN(CC)CCN(C)c1ccc(/C=C/c2ccnc3ccccc23)cc1,0.4%
COc1ccc(-c2nc(SCC(=O)Nc3ccc4c(c3)OCO4)c(-c3ccccc3)[nH]2)cc1,u
CC(=O)N1CCCC1c1nc2ccccc2n1Cc1cccc(C)c1 (centres undefined),0.3%
CCCCc1nnc(SCc2cc(=O)c3cc(F)ccc3[nH]2)n1C,1.3%
CC(C)(C)NC(=O)C(c1ccnc2ccccc12)n1c(=O)c(-c2cc3ccccc3[nH]2)nc2ccccc21 (centres undefined),-26%
Cn1c(=O)n(C)c2cc(N3CCOCC3)c(NS(=O)(=O)c3ccc(F)cc3)cc21,-0.7%
O=C1NCCN(Cc2ccc(F)cc2)C1=O,-1.1%
COc1cc(C(=O)OCc2cc(=O)n3nc(C(C)C)sc3n2)cc(OC)c1OC,-5.8%
COC(=O)C1CCN(S(=O)(=O)c2cc3c4c(c2)C(C)C(=O)N4CCC3)CC1 (centres undefined),-8.2%
O=C1NC[C@H](CCCCN2C[C@H](Cc3ccc(O)cc3)N(CC3CCCCC3)C(=O)C2=O)N(CCc2ccc(O)cc2)C1=O,0.9%
Cc1ccc(Cn2c(=O)n(CCc3ccccc3)c(=O)c3c(C)c(C)sc32)cc1,-2.5%
Cc1cccc(OCC(=O)Nc2cccc3cccnc23)c1C,-2.8%
CCCOC(=O)c1c(NC(=O)C2c3ccccc3Oc3ccccc32)sc2c1CCCC2,13µM*
Cc1ccc(C(=O)c2oc3ccccc3c2NC(=O)C(C)Oc2ccccc2Cl)cc1 (centres undefined),-5.5%
COc1ccc(CNC(=O)c2cccn2-c2nnc(N3CCCC3)s2)c(OC)c1,-6.9%
CCCOc1ccc(Oc2nc(NCC(C)C)nc(N3CCOCC3)n2)nn1,1.0%
Cc1ccc(NC(=O)c2cc(S(=O)(=O)N3CCCc4ccccc43)ccc2F)cc1F,-4.9%
Cc1ccc2c(c1)-c1c(cnc3cc(-c4ccccc4)nn13)CO2,-14%
COCCCNC(=O)CCCN1C(=O)CCn2nc(-c3cccn3C)cc21,-1.7%
CCCCOc1ccccc1C(=O)N(Cc1sccc1C)C1CCS(=O)(=O)C1 (centres undefined),1.9%
Cc1nn(CC(=O)NC2CC2)c(=O)c2cc3cc(F)ccc3n12,u
Cc1nn2c(=O)cc(COC(=O)c3ccc(NC(=O)COc4ccc(Cl)cc4)cc3)nc2s1,4.8%

# Only part of the results is shown (hit frequency here may not be typical).
